# Screens from PubChem.
# NPYLR7 agonist: activates Aedes aegypti NPYLR7 receptor. hit rate 0.15% among 270,000. HEK293T NPYLR7/Galpha15, GCaMP6s calcium fluorescence. AID 1259423. activation, % at 10 µM; in the data active means activation above about 40%;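 further: 0% = vehicle and 100% = reference agonist at the receptor; some compounds past the cut are filed as inactive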
# NPYLR7 agonist max-min: also measured in NPYLR7 agonist; calls as there; activation, %; measured here: Max-Min RFU normalised activation; some inactives read as strong as hits;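 span of the calcium signal over five minutes; 0% = vehicle and 100% = native peptide agonist; compound fluorescence can raise it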
# Starred values were filed as active, the others as inactive. The list is partial (hit frequency here may not be typical).
Molecule	NPYLR7 agonist	NPYLR7 agonist max-min
COc1ccc(CCN(Cc2ccco2)C(=O)CN(CCN2CCOCC2)C(=O)Nc2c(Cl)cccc2Cl)cc1OC	8	8
CC(C)(C)c1ccc(-n2ncc3c2CCCC3NC(=O)CCn2cnnn2)cc1 (stereo not drawn)	11	10
O=C(/C=C/c1cccc(C(F)(F)F)c1)N(Cc1nc2ccccc2c(=O)[nH]1)CC1CCCO1 (stereo not drawn)	2	-4
NC(=O)C1CCCCN1CC(=O)Nc1ccc(Cl)cc1 (stereo not drawn)	7	2
Cc1ccc(NC(=O)Cc2ccccc2)c(Br)c1	7	5
CCOC(=O)c1c(NC(=O)CCC2CCCC2)sc2c1CCC2	2	1
O=C(Cn1cnc2c(nnn2Cc2ccc(Cl)cc2)c1=O)N1CCCCC1	10	13
O=C(CN1CCN(C(=O)CN2CCOCC2)CC1)Nc1ccccc1F	0	0
CN(Cc1ccc(F)cc1)c1ccc2c(-c3ccccn3)noc2n1	4	0
COc1ccccc1NC(=O)N1CCC2(CC1)C(=O)N(CC(=O)Nc1cccc(Cl)c1)CN2c1ccccc1	20	23
CCOc1ccc(CN(Cc2ccco2)Cc2nc(C(=O)O)co2)cc1	10	19
CCCc1nc(NCCc2nc(C)cs2)c2cnn(C)c2n1	8	6
O=C(NCc1cccc(Cl)c1)c1ccc(-c2cc(-c3cccc4c3OCCO4)[nH]n2)cc1	-1	1
Cc1cc(C(=O)Nc2cc(C(C)(C)C)nn2-c2cc(Cl)ccc2Cl)cc(Cl)n1	3	-1
CNS(=O)(=O)Cc1ccc(CNC(=O)c2ccc(OC)cc2OC)cc1	0	-1
C=CCNC(=O)c1ccccc1N1CCC(NS(=O)(=O)CC)CC1	0	6
O=C(NC1CC1)C1CCN(C2CCN(C3C4CC5CC(C4)CC3C5)CC2)CC1 (stereo not drawn)	-4	-7
CN(C)c1nc(=O)[nH]c2nccnc12	-2	-3
CC(C)CNC(=O)c1nn2c(C(F)(F)F)cc(-c3cccs3)nc2c1Br	-8	-15
COc1ccc(-c2ccncc2)cc1CNC1CCCC1	-3	9

# A draw from above in order of length of the SMILES, smallest number first.
Molecule	NPYLR7 agonist	NPYLR7 agonist max-min
CCOC(=O)c1c(NC(=O)CCC2CCCC2)sc2c1CCC2	2	1
CN(Cc1ccc(F)cc1)c1ccc2c(-c3ccccn3)noc2n1	4	0
O=C(Cn1cnc2c(nnn2Cc2ccc(Cl)cc2)c1=O)N1CCCCC1	10	13
CC(C)CNC(=O)c1nn2c(C(F)(F)F)cc(-c3cccs3)nc2c1Br	-8	-15
O=C(NC1CC1)C1CCN(C2CCN(C3C4CC5CC(C4)CC3C5)CC2)CC1 (stereo not drawn)	-4	-7
Cc1cc(C(=O)Nc2cc(C(C)(C)C)nn2-c2cc(Cl)ccc2Cl)cc(Cl)n1	3	-1

# Next section:
Molecule	NPYLR7 agonist	NPYLR7 agonist max-min
CCCN(CCC)C(=O)c1cc(-c2ccccc2F)nc2cc(-c3ccccc3)nn12	9	11
O=C(CN(CCN1CCOCC1)C(=O)c1cc(Cl)cc(Cl)c1)N(Cc1ccc(F)cc1)Cc1cccs1	27	26
Cc1cccc(CN(C(=O)c2ccc(F)cc2)C2CCC(NC(=O)C3CCN(C(=O)/C=C/c4ccccc4)CC3)CC2)c1 (stereo not drawn)	11	18
O=C(NC1CCCCC1N1C(=O)CSC1=O)c1ccc2nsnc2c1 (stereo not drawn)	1	-2
Cc1cccc(N2CCn3c2nc2c3c(=O)n(CCCO)c(=O)n2C)c1	2	-4
Cc1ccccc1Oc1cc(-c2ccccc2)nc(SCc2ccccc2)n1	9	33
COc1cccc(C(NS(N)(=O)=O)c2ccccc2Cl)c1 (stereo not drawn)	4	5
Cc1nc(N2CCCCCCC2)ncc1C(C)NC(=O)C1CCC1 (stereo not drawn)	16	9
C=CCn1c(SCC(=O)N2CCC(C)CC2)nnc1-c1ccccc1F	-7	-2
CCCc1cc(C(=O)NC2CCN(c3cnn(C)c3)C2)sc1C (stereo not drawn)	-3	-4
Cc1ccc(C)c(CSC2=NCCN2S(=O)(=O)c2ccc([N+](=O)[O-])cc2)c1	6	7
Cc1cccc(COCC2CN(C(=O)c3cccc(OC(F)F)c3)CCO2)c1 (stereo not drawn)	0	18
CC1CCCC(NC(=O)CCCn2cnc3c2c(=O)n(C)c(=O)n3C)C1C (stereo not drawn)	8	6
CCN(Cc1ccc2c(c1)OCO2)C(=O)c1csc(-c2ccco2)n1	2	1
Cc1ccsc1C(CNC(=O)c1cccc2ccnn12)N(C)C (stereo not drawn)	2	1
CCOc1cc(C2C(C(=O)OC)=C(C)NC3=C2C(=O)CC(c2ccccc2)C3)cc(Cl)c1O (stereo not drawn)	-6	-11
COCCSc1ncc(-c2cccc(F)c2)c(C2CCN(C(=O)c3ccc[n+]([O-])c3)CC2)n1	12	4
CC(C)CN(C/C=C/c1ccco1)Cc1ccccn1	-3	-7
Cc1ccc(NC(=O)NC2(CCO)CCC2)cc1	1	-1
COc1cc(C)c(-c2nc3ccccc3c(=O)n2CCc2ccccc2)cc1C	6	5
CCc1[nH]nc2c1C(c1ccc(F)cc1Cl)CC(=O)N2 (stereo not drawn)	4	4
Cc1nc2sccn2c(=O)c1NC(=O)C1CCCO1 (stereo not drawn)	16	12
COc1ccccc1NC(=O)Nc1ccnn1C1CCN(C(=O)COc2ccccc2)CC1	-5	-5
Cc1nn(C(C)C)c(C)c1CN(C)C(=O)CCc1cn2ccccc2n1	-2	-3
Cc1cc(C)cc(CCC(=O)NCc2cnc(C)cn2)c1	0	0
COc1ccc(F)cc1C(=O)C1CCCN(C(=O)c2cnn(Cc3ccccc3)c2)C1 (stereo not drawn)	1	-2
Cc1ccc(S(=O)(=O)OCC(=O)O)cc1	-2	-6
CCOc1cc2c(cc1N)OC(C)C2 (stereo not drawn)	-2	-6
O=C(COC(=O)C(=Cc1cccs1)c1cccs1)NC1CCS(=O)(=O)C1 (stereo not drawn)	0	-1
Cc1sc(NC(=O)Oc2ccccc2)c(C#N)c1C	1	0
O=C(COc1coc(CN2CCc3ccccc3C2)cc1=O)NCCc1ccccc1	7	6
COc1ccc(OCC(=O)NCC2CN(c3cc(OC)c(OC)c(OC)c3)C(=O)O2)cc1 (stereo not drawn)	5	6
Cc1ccc(C)c(-n2nnnc2SCc2cc3c(cc2Br)OCO3)c1	10	14
COc1ccc(NC(=O)C2CCN(C(=O)[C@H](Cc3ccccc3)NC(=O)Nc3ccc4c(c3)CCC4)CC2)cc1	-1	7
CCN(CC)S(=O)(=O)c1cc(NC(=O)C(C)N2CC(C)OC(C)C2)ccc1C (stereo not drawn)	-4	-5
COCCNC(=O)CSCc1ccc(OC)c(Br)c1	9	6
Cc1ccc(-n2nc(C)c(CCC(=O)N3C[C@@H](C)O[C@@H](C)C3)c2C)cc1C	-6	-12
O=C(NCCNc1ccc(Nc2cccnc2)nn1)c1cccc(F)c1	1	0
Cc1ccc(S(=O)(=O)N2Cc3ccccc3CC2C(=O)Nc2nncs2)cc1 (stereo not drawn)	-5	-7
Cc1cc(CN(C)Cc2cn(-c3ccc(F)cc3F)nc2-c2ccccc2C)on1	12	15
CC1SCCN1S(=O)(=O)c1ccc2ccccc2c1 (stereo not drawn)	5	2
Cc1ccc(S(=O)(=O)N2CCCCC2)cc1NC(=O)CSc1ccccn1	5	1
CC(=O)Oc1c(-c2ccc(NC(=O)C3CCCC3)cc2)c(-c2cccc(C)c2)nn1-c1cc(C)ccc1C	15	21
Cc1ccc(NC(=O)CSc2nc(Cl)cc(N3CCN(C(=O)NC(C)C)C(C)C3)n2)cc1 (stereo not drawn)	10	10
O=C(CCc1ccccc1)NNC(=O)c1ccc(F)cc1	4	6
CCCSc1ncccc1C(=O)Nc1cc(C(C)(C)C)nn1-c1cc(Cl)ccc1Cl	6	-1
Cc1cc(C(=O)N2CCN(C(c3ccc(F)cc3)c3ccc(F)cc3)CC2)n(C(C)(C)C)n1	9	2
Fc1ccccc1C1c2[nH]c3ccccc3c2CCN1Cc1ccoc1 (stereo not drawn)	-6	-11
O=C(c1ccco1)N1CCN(c2nccc(-c3cccs3)n2)CC1	-14	-10
CCn1c(SCC(=O)Nc2ccc(Cl)cc2)nc2c(-c3ccccc3)c[nH]c2c1=O	1	-5
CC1CCN(c2ccc(NC(=O)c3ccc(C(F)(F)F)cc3)cc2C(=O)NCc2ccc(F)cc2)CC1	-2	-2
CC(=O)N1CCCN(C(=O)c2cc(C(N)=O)cs2)CC1	4	4
N#CC(=Cc1c(F)cccc1Cl)c1nc2ccccc2o1	4	3
O=C(NNc1nc(-c2ccccc2)c2cc(Br)ccc2n1)c1ccc(F)cc1	-7	-3
Cc1ccccc1N=c1sc(C2=c3cc(Br)ccc3=NC2=O)c(O)n1-c1ccccc1C	-1	-7
Cc1ccc(C2(c3noc(Cn4cc(C)nc4C)n3)CCCC2)cc1	-1	-1
COc1ccc(Cl)cc1S(=O)(=O)NCc1ccco1	4	0
CCCc1nc(CNC(=O)[C@@H]2C[C@@H]3C=C[C@H]2C3)cs1	0	-2
O=C(/C=C/c1cnc2ccccc2n1)NCC1CCC2(CC1)OCCO2	5	2
O=C(c1cccc(-n2cnnc2)n1)N1CCCC2(C=Cc3ccccc3O2)CC1 (stereo not drawn)	-1	-2

# Later entries:
Molecule	NPYLR7 agonist	NPYLR7 agonist max-min
Cc1cc(C)nc(NC2=NCC(=O)N2c2ccc(F)cc2)n1	0	1
CCN1CC(CNc2ccc(-c3nc(-c4ccccc4F)no3)cn2)CC1=O (stereo not drawn)	12	6
Cc1cccc(-c2ccc(NC(=O)C3CCN(C(=O)c4nonc4C)CC3)cc2)c1	-3	-4
COc1ccc2cc(C(N)=O)c(=Nc3ccccc3C)oc2c1	2	-1
Cc1nc2ccc(C(=O)N(Cc3noc(C)n3)C(C)C)cc2[nH]1	9	10
Cn1ccnc1CN1CCN(Cc2nc(-c3ccc4c(c3)OCO4)no2)CC1	12	3
CCCCN(C)S(=O)(=O)Nc1cccc(COC)c1	-1	-1
CCOC(=O)C1=C(C)N=c2sc(=Cc3cccnc3)c(=O)n2C1c1ccccc1 (stereo not drawn)	-3	-6
Cc1ccc(CSCC(=O)Nc2cc(C)ccn2)cc1	-9	-11
Cc1cc(C(=O)CSc2nnnn2-c2ccccc2)c(C)n1-c1ccc(Br)cc1	-1	-5
COC(=O)c1ccc(COC(CN2CCN(C(=O)c3oc4ccccc4c3C)CC2)c2cccc(OC)c2)cc1 (stereo not drawn)	2	-1
CNC(=O)c1ccc(OC)c(-n2ccc(C)n2)c1	5	1
COc1ccccc1Nc1nc2ccccc2n1C(C)C	2	3
COc1cccc(CN2CCn3nc(C(=O)O)cc3C2=O)c1	-12	-10
O=S(=O)(N1CCCCCC1)N1CCN(Cc2c(Cl)cccc2Cl)CC1	11	9
Cc1nc2ccc([N+](=O)[O-])cc2[nH]1	-7	-14
CN(C)S(=O)(=O)Nc1ccc2c(c1)c1c(n2S(=O)(=O)N(C)C)CC(C)(C)CC1=O	-2	1
CCN(CC)c1c(C)nc2ccc(C(=O)NCCc3ccccn3)cn12	-5	-12
O=S(=O)(c1ccc(S(=O)(=O)N2CC=C(c3ccccc3)CC2)cc1)C(F)F	10	7
CCCCCCn1c(CN2CCOCC2)nc2c1c(=O)[nH]c(=O)n2C	0	8
Cc1cc(=O)n2c(n1)SCC2CC(=O)NCC1CCCO1 (stereo not drawn)	-5	-6
CC(CCc1ccccc1)NC(=O)c1ccc(CN2CCn3cccc3C2c2ccoc2)o1 (stereo not drawn)	19	13
CCOC(=O)CCCNC(=O)N1CCN(c2ccc(NC(=O)c3ccco3)cn2)CC1	22	24
Cc1ccc(C(=O)Nc2ccc(NC(=O)C(C)C)cc2)o1	11	7
O=C(COc1ccc(-c2nnco2)cc1)N(C1=CCCCC1)C1CC1	2	0
O=C(c1cn[nH]c1-c1ccc(F)cc1)N1CCC(C(=O)N2CCCCCC2)CC1	16	10
O=C(NCc1cccnc1)c1cnn2c1NC(c1cccs1)CC2C(F)(F)F (stereo not drawn)	-8	-14
Cc1c(F)cccc1NC(=O)CN1CCC(Cc2noc(C3CC3)n2)CC1	7	4
c1csc(-c2nc(SCCN3CCCCC3)[nH]c2-c2cccs2)c1	-3	6
CN1CCN2CCN(Cc3ccc4[nH]ccc4c3)CC2C1 (stereo not drawn)	5	2
COc1ccc(NC(=O)CSc2cn(CC(=O)N3CC(C)OC(C)C3)c3ccccc23)cc1OC (stereo not drawn)	-3	-9
O=C(C1=CCCCC1)N1CCC2(CCCN(Cc3ccc(F)c(F)c3)C2)C1 (stereo not drawn)	-2	-6
COC(=O)Cn1c(O)c(N=NC(=O)CNC(=O)/C=C/c2ccco2)c2ccccc21	10	15
O=C(CS(=O)(=O)Cc1ccccc1)N(CC1CCCO1)c1nc2c(F)cccc2s1 (stereo not drawn)	-12	-18
Cc1ccccc1NC(=O)N1CCC2(CC1)SCCN2C(=O)CCc1ccccc1	-1	9
Cc1ccccc1S(=O)(=O)N1CCC(c2nc(-c3ccccc3F)no2)CC1	23	17
COc1ccc(OC)c(/C=C2/SC(=S)N(c3ccccc3OC)C2=O)c1	-1	-9
COCCCNC(=O)CCCCn1c(=S)[nH]c2c(sc3ccccc32)c1=O	-5	-7
Cc1c(C)n2c3c(=O)n(C)c(=O)n(C)c3nc2n1CCN1CCN(c2ccc(F)cc2)CC1	-3	-3
CCN(CC)c1onc(-c2ccccc2)c1CN(CC1CCCO1)C(=O)Cc1ccccc1 (stereo not drawn)	4	9

# A different layout for some results above.
> Cc1ccccc1NC(=O)N1CCC2(CC1)SCCN2C(=O)CCc1ccccc1
  NPYLR7 agonist = -1 | NPYLR7 agonist max-min = 9

> O=C(C1=CCCCC1)N1CCC2(CCCN(Cc3ccc(F)c(F)c3)C2)C1 (stereo not drawn)
  NPYLR7 agonist = -2 | NPYLR7 agonist max-min = -6
